TDP1 block: inhibitors of human tyrosyl-DNA phosphodiesterase TDP1; AID 485290; Potency, µM (series often up to 130 µM), for inactives: top-dose activity change, negative = inhibition, usual class: inhibitors; recombinant TDP1, AlphaScreen DNA substrate cleavage; Q9NUW8; hit rate 0.28% among 350,000; also: nearly all actives have a fitted effect of over 40% in size
Target sequence (Q9NUW8 whole entry, looked up): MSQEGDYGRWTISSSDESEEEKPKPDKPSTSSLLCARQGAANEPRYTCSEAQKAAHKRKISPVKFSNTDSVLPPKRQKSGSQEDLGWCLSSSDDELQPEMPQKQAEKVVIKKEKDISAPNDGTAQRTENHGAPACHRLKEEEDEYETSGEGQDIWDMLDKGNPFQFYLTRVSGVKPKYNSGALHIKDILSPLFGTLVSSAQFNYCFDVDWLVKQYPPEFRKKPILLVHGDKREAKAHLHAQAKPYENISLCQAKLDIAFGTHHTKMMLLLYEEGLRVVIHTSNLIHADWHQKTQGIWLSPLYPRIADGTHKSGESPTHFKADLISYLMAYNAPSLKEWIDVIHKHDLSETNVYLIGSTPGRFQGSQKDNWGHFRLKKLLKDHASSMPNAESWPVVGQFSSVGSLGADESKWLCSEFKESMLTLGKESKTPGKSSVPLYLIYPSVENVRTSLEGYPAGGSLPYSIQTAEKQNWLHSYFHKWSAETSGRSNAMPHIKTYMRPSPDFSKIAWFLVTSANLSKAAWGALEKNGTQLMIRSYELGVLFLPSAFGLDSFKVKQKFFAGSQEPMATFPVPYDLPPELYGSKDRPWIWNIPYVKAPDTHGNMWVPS
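Enzyme-compound mixtures sat 15 min at room temperature, followed by a 5 min reaction with 15 nM final substrate and 10 min with AlphaScreen beads. Recombinant human Tdp1 was used at 1 nM final.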
N370S GC mod: inhibits or activates N370S mutant glucocerebrosidase; N370S GC spleen homogenate, 4MU-glucoside fluorescence; Potency, µM (highest dose often 59.4 µM), inactives show at the top dose activity change, negative = inhibition, most hits filed as inhibitors; hit rate 0.092% among 330,000;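 also: 0% = full enzyme activity and -100% = no enzyme basal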
* = called active by the depositor; u = inconclusive; x = not tested or not shown; [ ] = remark or other dose. Calls follow the shape of the dose curve; as a rule, active = well fitted curve in the direction sought with a large enough effect; inconclusive = small, poorly fitted or top-dose-only effect, or another doubt; inactive = no such curve, though single readings can be large; an effect the other way counts as inactive or inconclusive. Unless noted, % is scaled to controls: 0 for no effect and ±100 for the full control effect; potency is read from the fitted curve at half-maximal effect. An excerpt; most or all hits stand in other tables.

| N370S GC mod | TDP1 block | compound |
| --- | --- | --- |
| -1% | 6% | COc1ccc(OC(C)C(=O)N(C)Cc2nc(-c3cccc(C)c3)no2)cc1 (stereo unspecified) |
| -1% | x | CCc1ccc(S(=O)(=O)N2CCN(c3ccccc3OC)CC2)cc1 |
| 4% | 1% | O=C(Cn1cnc2c(nnn2-c2ccccc2)c1=O)NCc1ccco1 |
| 4% | 3% | Cc1cccc(C(=O)Nc2nnc(-c3ccc(C(C)(C)C)cc3)s2)c1 |
| 13% | 0% | CN(C)S(=O)(=O)c1ccc(C(=O)NC(=O)CSc2ccccc2)cc1 |
| -14% | 1% | O=C1NC(=O)C2(COC(c3ccncc3)OC2)S1 (stereo unspecified) |
| -9% | -13% | Oc1ccc(C[C@@H]2CNCCN2CC2CCCCC2)cc1 |
| -5% | 2% | CC1C=CCC2C(=O)N(c3ccc(OC(=O)c4ccco4)cc3)C(=O)C12 (stereo unspecified) |
| -16% | 3% | O=S(=O)(NCC1NCCc2ccccc21)c1ccccc1 (stereo unspecified) |
| -1% | 5% | NC(=O)c1nsc(C(=O)N(Cc2ccc(F)cc2)C(C(=O)NCC2CCCO2)c2ccc(O)cc2)c1N (stereo unspecified) |

The closing 4 records of the part above come first, to join the parts.
| N370S GC mod | TDP1 block | compound |
| --- | --- | --- |
| -9% | -13% | Oc1ccc(C[C@@H]2CNCCN2CC2CCCCC2)cc1 |
| -5% | 2% | CC1C=CCC2C(=O)N(c3ccc(OC(=O)c4ccco4)cc3)C(=O)C12 (stereo unspecified) |
| -16% | 3% | O=S(=O)(NCC1NCCc2ccccc21)c1ccccc1 (stereo unspecified) |
| -1% | 5% | NC(=O)c1nsc(C(=O)N(Cc2ccc(F)cc2)C(C(=O)NCC2CCCO2)c2ccc(O)cc2)c1N (stereo unspecified) |
| -9% | 0% | COc1ccccc1-c1nc(C#N)c(N2CCN(C(=O)c3ccco3)CC2)o1 |
| 1% | 5% | O=C1CC(c2ccccc2)CCc2sccc2N1 (stereo unspecified) |
| u | 3% | O=c1c2ccccc2nc2n1C(CSCc1ccccc1)CS2 (stereo unspecified) |
| -1% | 3% | Cc1ccc(S(=O)(=O)NC(=O)NCc2ccc(F)cc2)cc1 |
| 11% | -3% | Cc1cc(C(F)(F)F)c(C#N)c(SCC(=O)Nc2nc3cc(Br)ccc3s2)n1 |
| -12% | 0% | O/N=C/c1cccnc1Sc1ccccc1 |
| 28% | 0% | Cc1ccccc1C(=O)O/N=C(\N)c1cccc([N+](=O)[O-])c1 |
| -22% | 1% | Cc1cc(C)n(C(C)CC(=O)N2CCc3ccccc32)n1 (stereo unspecified) |
| -1% | 13% | CN(C)S(=O)(=O)c1ccc(S(=O)(=O)N2CCCC(C(=O)NC3CCCC3)C2)cc1 (stereo unspecified) |
| 0% | 1% | O=C(NCCC(=O)N1CCCC1)c1ccccc1Cl |
| 3% | 0% | O=C(c1ccc(OCC2CCCO2)cc1)N1CCc2ccccc2C1 (stereo unspecified) |
| -15% | x | FC(F)(F)c1nnc2c3ccccc3c(Cl)nn12 |
| 0% | 4% | Cc1ccccc1OCC(=O)NN1CCN(C)CC1 |
| -7% | -2% | CCN(CC)S(=O)(=O)c1cccc(C(=O)N/N=C/c2ccc(N3CCOCC3)cc2)c1 |
| -4% | 3% | Cc1nc(N2CCC(C(N)=O)CC2)c2c(-c3cccs3)csc2n1 |
| 6% | 2% | O=c1cc(N2CCN(c3ccccc3)CC2)[nH]c(=O)n1-c1ccccc1 |
| -10% | -1% | CSc1ccccc1OCc1cc(C(=O)N(C)Cc2cnccn2)no1 |
| -1% | x | CC1CN(c2nc(Nc3ccccc3F)nc(N)c2[N+](=O)[O-])CC(C)O1 (stereo unspecified) |
| 6% | 0% | COc1ccccc1CNC(=O)CSc1nc(C)cs1 |
| 0% | 4% | CCn1ccnc1CNC(=O)CC1C(=O)NCCN1CCCc1ccccc1 (stereo unspecified) |
| 4% | 0% | COC(=O)C1(CCSC)NC(c2ccc(O)c(OC)c2)C2C(=O)N(c3ccc(C)cc3)C(=O)C21 (stereo unspecified) |
| -2% | 3% | CN(CCNC(=O)C1CCCN(c2ncnc3c2nc2n3CCCCC2)C1)Cc1ccccc1 (stereo unspecified) |
| u | 4% | C=CCOC(=O)C1=C[C@H](c2coc3ccccc3c2=O)C[C@H](OCc2ccc(CO)cc2)O1 |
| 0% | 1% | CC1CCCC(C)N1CCCNC(=O)Cn1cc2c(n1)CCCC2 (stereo unspecified) |
| 0% | 4% | O=C(CSc1nnc(CNC(=O)c2ccc(F)cc2)o1)NCc1ccc2c(c1)OCO2 |
| -3% | 3% | COc1ccc(/C=C/CN2CCN(Cc3ccc(C)cc3)C(CCO)C2)cc1 (stereo unspecified) |
| 11% | -5% | CCc1cccc(NC(=O)Nc2ccc3c(c2)OCO3)c1 |
| -5% | 6% | Cc1cc(C)nc(SCc2nnc(SCC(=O)Nc3ccccc3C)n2Cc2ccco2)n1 |
| -9% | 4% | COc1ccc(/C(O)=C2/C(=O)C(=O)N(CCN(C)C)C2c2cccnc2)cc1C (stereo unspecified) |
| -5% | -4% | CC1CN(CCCCOc2ccc3ccccc3c2)CC(C)O1 (stereo unspecified) |
| -4% | 2% | O=C(N/N=C/c1c[nH]c2ccccc12)c1ccn[nH]1 |
| -1% | -5% | Cc1ccc(OCCN2CCN(C)CC2)c([N+](=O)[O-])c1 |
| -5% | x | CC(C)C(=O)N1CCN(CCN2C(=O)c3cccc4cccc(c34)C2=O)CC1 |
| 2% | 4% | COc1ccc(CCN2C(=O)CC(Cc3cccc(C)c3)C2=O)cc1OC (stereo unspecified) |
| -21% | 4% | CS(=O)(=O)c1ccc(NC(=O)c2cccc(S(=O)(=O)N3CCN(Cc4ccccc4)CC3)c2)cc1 |
| 7% | 3% | Cc1ccc(C)c(Nc2ncccc2C(=O)NCc2cccs2)c1 |
| -3% | -1% | CSc1nc2nc(-c3ccccc3)cc(=O)n2[nH]1 |
| 6% | 3% | CSc1ncccc1C(=O)N(C)CC(=O)Nc1ccc(Cl)c(C(F)(F)F)c1 |
| 7% | 2% | CC1CN(C(=O)CCc2ccccc2)C(C)CN1C(=O)CCc1ccccc1 (stereo unspecified) |
| -2% | 7% | O=C(Nc1ccccc1N1CCN(C(=O)c2ccccc2)CC1)c1cc2ccccc2o1 |
| -26% | 2% | CCOC(=O)c1ccccc1NC(=O)Cn1cnc2c(cnn2-c2ccccc2)c1=O |
| -18% | x | O=C(O)CCN1C(=O)c2ccccc2Sc2ncccc21 |
| -28% | 5% | O=C(CCSCCc1ccccn1)Nc1ccccn1 |
| -3% | 0% | CN(C)C(=O)COc1ccc(Oc2ccccc2)cc1 |
| 0% | 0% | O=C(COC(=O)c1ccco1)Nc1nc2c(F)c(F)c(F)cc2s1 |
| x | 3% | Cc1ccc(-n2c(C)csc2=N)cc1 |
| 2% | 8% | CN(Cc1cccc(F)c1)C(=O)CNS(=O)(=O)c1ccc2ccccc2c1 |
| 0% | 5% | Cc1nn(S(=O)(=O)c2ccccc2)c(C)c1S(=O)(=O)N1CCOCC1 |
| -29% | x | CCOC(=O)c1ccc(Oc2cn[nH]c2-c2ccc(O)cc2O)cc1 |
| 9% | 1% | C=CCNc1nc(NCC)nc(N2CCOCC2)n1 |

Sorted by value in TDP1 block (lowest first): some entries from above.
| N370S GC mod | TDP1 block | compound |
| --- | --- | --- |
| -3% | 0% | CN(C)C(=O)COc1ccc(Oc2ccccc2)cc1 |
| x | 3% | Cc1ccc(-n2c(C)csc2=N)cc1 |
| 0% | 5% | Cc1nn(S(=O)(=O)c2ccccc2)c(C)c1S(=O)(=O)N1CCOCC1 |

Next part
| N370S GC mod | TDP1 block | compound |
| --- | --- | --- |
| -6% | x | COc1ccc(S(=O)(=O)N2CCOC2CNC(=O)C(=O)NCCc2ccccc2OC)cc1C (stereo unspecified) |
| 1% | 3% | Cc1ccc(CNC(=O)C2CN(S(C)(=O)=O)c3cc(Cl)ccc3O2)cc1 (stereo unspecified) |
| 4% | -2% | COc1ccc(S(=O)(=O)N(C)c2ccc(C(=O)N3CCC(C(N)=O)CC3)cc2)cc1OC |
| 11% | 3% | O=C(O)c1ccc(Cl)c(NC(=S)NC(=O)c2ccccc2[N+](=O)[O-])c1 |
| -9% | 3% | CCc1ccc(N(CC(=O)Nc2ccc(NC(C)=O)cc2)S(=O)(=O)c2ccccc2)cc1 |
| -7% | -2% | CCOC(=O)CSc1nnc(-c2c[nH]c3ccccc23)n1CC |
| 1% | -2% | O=S(=O)(NCc1ccco1)c1cccc2cccnc12 |
| 2% | 3% | CN(NC1OC(=O)c2ccccc21)c1ncc(C(F)(F)F)cc1Cl (stereo unspecified) |
| x | 0% | CN(CC1COc2ccccc2O1)C(=O)CSc1nncs1 (stereo unspecified) |
| -7% | 4% | COc1ccc(CSc2nnnn2C)cc1F |
| x | -7% | Cc1ccc(S(=O)(=O)N2CCOCC2)cc1C(=O)OCC(=O)NC1CC1 |
| -6% | 1% | CCN(CC(=O)Nc1c(F)cccc1F)C(=O)C(C)SCc1nc2sc(C)c(C)c2c(=O)[nH]1 (stereo unspecified) |
| 21% | -7% | COc1ccc(-c2c(NC(=O)c3ccco3)n(C)c3ccccc3c2=O)cc1 |
| -22% | 1% | COC(=O)C1=C(C)N(C)C(=O)NC1c1ccccc1 (stereo unspecified) |
| -6% | 6% | CS(=O)(=O)N1N=C(c2ccco2)CC1c1cccc([N+](=O)[O-])c1 (stereo unspecified) |
| 22% | 6% | O=C(CCc1nc(-c2ccccc2F)no1)Nc1ccc(Oc2ccccc2)cc1 |
| -4% | 1% | Cc1cc(NC(=O)CCS(=O)(=O)c2ccc(F)cc2)no1 |
| 10% | 1% | CN(Cc1ccccc1)C(=O)c1ccccc1NC(=O)c1ccccc1 |
| x | 0%[56.1 µM] | Cc1c(C(=O)N2CCN(CC(=O)Nc3ccccc3Cl)CC2)oc2ccc(Br)cc12 |
| -7% | 6% | S=c1[nH]cc(-c2ccccc2)n1-c1ccccc1Cl |
| -8% | -6% | C=CCn1cc(F)c(=O)n(CC=C)c1=O |
| -8% | -1% | O=C(c1cc(F)ccc1F)C1CCCN(C(=O)c2ccc(F)cc2Cl)C1 (stereo unspecified) |
| 4% | 1% | CCCNC(=O)CSc1nnc(-c2ccc(F)cc2)o1 |
| -1% | x | S=c1nc(Cc2ccccc2)[nH]c2ccccc12 |
| 1% | -3% | COc1ccc(N2C(=O)CC(Sc3ccccc3C(=O)O)C2=O)c([N+](=O)[O-])c1 (stereo unspecified) |
| x | 0% | COc1ccccc1CNC(=O)CN1C(=O)NC2(CCCc3sccc32)C1=O (stereo unspecified) |
| -11% | 0% | CCOc1ccc([C@@H]2CC=C(C(=O)O)CN2S(=O)(=O)c2ccc(C)cc2)cc1 |
| 28% | -1% | Cc1ccc(N(C(=O)c2snc(C(N)=O)c2N)C(C(=O)NC2CCCC2)c2ccco2)cc1 (stereo unspecified) |
| 9% | 6% | CCn1cc(/C=N/NS(=O)(=O)c2ccc(C)cc2)c(C)n1 |
| 5% | 0% | O=C(COc1ccc2ccc(=O)oc2c1)N1CCc2ccccc21 |
| 5% | -4% | Cc1cc(=O)oc2cc(OCC(=O)NCCCN3CCOCC3)ccc12 |
| x | -10% | CCC(CO)Oc1cc(NC(=O)c2cccc([N+](=O)[O-])c2)c2ncn(C(C)C)c2c1 (stereo unspecified) |
| -3% | x | Cc1ccc(S(=O)(=O)N(Cc2ccccc2)c2ccccn2)cc1[N+](=O)[O-] |
| 1% | 0% | COc1ccccc1NC(=O)c1cnc(SCC(=O)NCC2CCCO2)n(C)c1=O (stereo unspecified) |
| 1% | 3% | CC(C)n1cc(C(=O)NC2CC(C)(C)Cc3c2cnn3-c2ccccc2)cn1 (stereo unspecified) |
| 8% | 5% | Cc1cccc(OCC(=O)NN2C(=O)C3C4C=CC(O4)C3C2=O)c1 (stereo unspecified) |
| -6% | 0% | COc1ccc(Cl)cc1NC(=O)CSc1nc(C)cc(C)n1 |
| 1% | 0% | CCc1ccccc1NS(=O)(=O)Cc1ccccc1 |
| -9% | x | Cc1noc(C(F)(F)F)c1C(=O)NNC(=O)c1cccc(C(F)(F)F)c1 |
| -16% | 2% | O=C(c1ccc(Cl)cc1)c1ccc(OCC(=O)N2CCOCC2)cc1 |
| -4% | -3% | CCOC(=O)C1(Cc2ccccc2)CCCN(Cc2ccncc2)C1 (stereo unspecified) |
| u | 7% | CC1CCN(c2oc(Cc3cccc4ccccc34)nc2C#N)CC1 |
| 13% | 3% | Cc1ccc(NC(NC(=O)Cc2ccccc2)C(Cl)(Cl)Cl)cc1 (stereo unspecified) |
| -2% | 2% | CCCNc1nc(N2CCCC2)nc(N2CCCC2)n1 |
| 17% | 10% | Cc1ccc(NC(=O)CNc2ccc(OC(C)C)cc2)cc1 |
| u | x | Cc1cc(=O)oc2c3c(cc(OCC(=O)NC(C)C)c12)OC(C)(C)CC3 |
| 5% | 2% | COc1cc(S(=O)(=O)N2CCC(c3nc4ccccc4s3)CC2)ccc1S(=O)(=O)N1CC(C)CC(C)C1 (stereo unspecified) |
| -10% | -2% | CC(C)(Oc1ccc(Cl)cc1)C(=O)NC1CCN(Cc2ccccc2)CC1 |
| 1% | 3% | Cc1ccc(Nc2nnc(SC3CCOC3=O)s2)cc1 (stereo unspecified) |
| -1% | x | Cc1ccc(-c2[nH]ncc2C(=O)c2cccc(F)c2)c(O)c1 |

3 structures out of the list, ordered by number of heavy atoms, smallest number first:
| N370S GC mod | TDP1 block | compound |
| --- | --- | --- |
| -5% | -4% | CC1CN(CCCCOc2ccc3ccccc3c2)CC(C)O1 (stereo unspecified) |
| -8% | -1% | O=C(c1cc(F)ccc1F)C1CCCN(C(=O)c2ccc(F)cc2Cl)C1 (stereo unspecified) |
| 1% | 3% | CC(C)n1cc(C(=O)NC2CC(C)(C)Cc3c2cnn3-c2ccccc2)cn1 (stereo unspecified) |

Assay outcomes as filed in PubChem BioAssay.
